Assay outcomes deposited in PubChem by National Center for Advancing Translational Sciences (NCATS).
SmPrx2 inh = Schistosoma mansoni Prx2 inhibition; actives 0.07% (n = 65,000); AID 448; S. mansoni Prx2 activity coupled to TGR/GSH (TGR is thioredoxin glutathione reductase), NADPH fluorescence loss, qHTS; some inactives read as strong as hits; Potency, µM; active means full or partial inhibition curve with a strong effect at the top dose; inconclusive means weaker partial or single-point curve; inactive means no accepted curve; note: series up to 57 µM; many of its hits are not listed in these tables
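qHTS, coupled TGR/Prx2 format; 15 min compound preincubation at RT; reaction started with H2O2 (2.5 mM aliquot); kinetic NADPH fluorescence decrease, ex 365/em 450 nm.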
LT uptake inh = blocks cellular internalization of anthrax lethal toxin. Cells, anthrax lethal toxin internalization, FRET ratio (460/530). Potency, µM (highest dose often 40 µM), for inactives: at the highest dose activity change, negative = inhibition, hits mostly inhibitors. actives 0.67% (n = 70,000); active = well fitted falling ratio curve with the 530 nm signal flat; inconclusive = other ratio curves, or a change in one channel alone; inactive = flat curves in the ratio and both channels; the % refers to the ratio; note: % is set by controls: 0 for no effect and ±100 for the full control effect; nearly all actives have a fitted effect of over 50% in size; tested in ME-180 cells; beta-lactamase reporter
* = called active by the depositor; ? = inconclusive; · = no result given; [ ] = dose if it differs, or a comment. Potency is the fitted concentration of half-maximal effect.

Results follow in this order: SmPrx2 inh	LT uptake inh
> CCC(c1nnnn1Cc1ccco1)N(Cc1ccccc1OC)Cc1cc2cc(C)ccc2[nH]c1=O (stereo not given)
  >57	-6%
> CN(C)c1ccc(C(=O)N2CC(=O)N(CCc3ccccc3)C(=O)C2)cc1
  >57	-27%
> CCC(C)(C)n1nnnc1C(c1ccc(OC)c(OC)c1)N1CCN(c2ccc(OC)cc2)CC1 (stereo not given)
  >57	?
> CCSc1nnc(-c2ccc(S(=O)(=O)NCc3cccs3)cc2)o1
  >57	-9%
> CC(C)OC(=O)CC12CN3CC(CC(=O)OC(C)C)(CN(C1)C(=O)c1ccccc1C3=O)C2=O
  ·	-6%
> O=C(Nc1nc2nc(-c3ccccc3)cc(-c3ccccc3)n2n1)c1ccco1
  >57	?
> O=C(NC1=NCCS1)c1cccc(NC(=O)c2ccco2)c1
  >57	9%
> COc1ccc(OC)c(S(=O)(=O)Nc2c(F)cccc2F)c1
  >57	-7%
> C/C=C/COc1nc2c(c(=O)n(C)c(=O)n2C)n1C
  >57	-5%
> CCN(CC)S(=O)(=O)c1cccc(-c2nnc(SCCCC(=O)c3ccc(F)cc3)o2)c1
  >57	-36%
> COCCN(CCOC)Cc1c(C)[nH]c2c(C)c(C)ccc2c1=O
  ·	-1%
> Cn1c(=O)cc(OCC(=O)NCc2cccnc2)c2ccccc21
  >57	8%
> COc1cccc(NC(=O)CSc2nnc(Cn3c(=O)sc4ccccc43)n2C)c1
  >57	-15%
> CN(C(=O)CSc1nc(N)nn1-c1ccccc1)c1ccccc1
  >57	11%
> Cc1nnc(Sc2nc3c(c(=O)n(C)c(=O)n3C)n2Cc2ccc(Cl)cc2)s1
  >57	-11%
> Cc1cc(C)n(-c2nc(SCC(=O)NCC3CCCO3)c3c4c(sc3n2)CCCC4)n1 (stereo not given)
  >57	4%
> CCNS(=O)(=O)c1ccc(OCCNS(C)(=O)=O)cc1
  >57	10%
> CCCc1cc(=O)[nH]c(Nc2cc(OC)ccc2OC)n1
  >57	4%
> CCOC(=O)c1c(CN2CCOCC2)n(-c2ccccc2)c2ccc(O)cc12
  >57	-20%
> O=S(=O)(NCCc1csc(-c2ccccc2)n1)c1ccc2c(c1)OCCO2
  >57	-6%
> CC(OC(=O)c1cc2sccc2n1C)C(=O)NCC1CCCO1 (stereo not given)
  >57	6%
> CCOCCCNC(=O)c1ccc2c(c1)OCO2
  >57	-6%
> CCc1cccc(OCC(=O)Nc2ccc(S(=O)(=O)Nc3onc(C)c3C)cc2)c1
  >57	-8%
> CCN(CC)CC(O)COc1ccccc1C(=O)CCc1ccccc1 (stereo not given)
  >57	4%
> OCCNc1ncnc2c1ncn2[C@@H]1O[C@@H](CO)[C@H](O)[C@@H]1O
  >57	-3%[8 µM]
> COc1ccc(C)cc1-n1nnnc1SCC(=O)c1cc(C)n(Cc2ccco2)c1C
  >57	-16%
> COc1ccccc1NC(=O)CN1CCN(CC(=O)Nc2cc(NC(C)=O)ccc2OC)CC1
  >57	8%
> CCN(CC)C(=O)CSc1nnc(-c2ccco2)n1Cc1ccco1
  >57	-7%
> CCOc1ccc(CNC(=O)C2CCN(S(=O)(=O)CC)CC2)cc1OC
  >57	-2%
> Cc1cccc(OCC(=O)Nc2ccc(N3CCCC3)cc2)c1C
  ·	?

Reprinted from above for reference:
Results follow in this order: SmPrx2 inh	LT uptake inh
> CCN(CC)CC(O)COc1ccccc1C(=O)CCc1ccccc1 (stereo not given)
  >57	4%
> OCCNc1ncnc2c1ncn2[C@@H]1O[C@@H](CO)[C@H](O)[C@@H]1O
  >57	-3%[8 µM]
> COc1ccc(C)cc1-n1nnnc1SCC(=O)c1cc(C)n(Cc2ccco2)c1C
  >57	-16%

Further compounds
Results follow in this order: SmPrx2 inh	LT uptake inh
> Brc1ccc(-c2nnc3n2-c2ccccc2CC3)cc1
  >57	-6%
> O=C1CCN=C(Nc2ccc(F)cc2)N1Cc1ccccc1
  >57	-10%
> COC(=O)c1ccsc1NC(=O)CSc1nnnn1Cc1ccccc1
  >57	·
> Cc1ccc2c(c1)c(-c1ccccc1)nc1nncn12
  >57	?
> CCn1c(-c2ccsc2)nc2c1c(=O)[nH]c(=O)n2Cc1ccccc1
  >57	-17%
> CC(=O)Nc1ccc(N2C(=O)CSC2c2ccc(F)cc2)cc1 (stereo not given)
  >57	13%
> COc1ccc(-c2nn3c(-c4ccccc4)nnc3s2)cc1OC
  >57	-13%
> CC(Sc1nnc(Cn2c(=O)sc3ccccc32)n1C)c1ccccc1 (stereo not given)
  >57	-24%
> CCOc1ccccc1C(=O)Nc1ccc(-c2nnc(-c3ccc(C)cc3)o2)cc1
  >57	18%
> CCN(C(=O)CCS(=O)(=O)c1ccc(Br)cc1)c1ccc2c(c1)OCO2
  >57	-8%
> COc1ccc(-n2c(SCCC(=O)O)nnc2-c2ccncc2)cc1
  >57	-9%
> CCOc1ccc(N2C(=O)CC(n3nc(C)cc3C)C2=O)cc1 (stereo not given)
  >57	-6%
> Cc1ccc2nc(C(O)C(O)c3nc4ccc(C)cc4[nH]3)[nH]c2c1 (stereo not given)
  >57	4%
> CC(C)(C)COS(=O)OCC(C)(C)C
  >57	-8%[8 µM]
> CCn1c2ccccc2c2nc3cc(S(=O)(=O)N4CCOCC4)ccc3nc21
  >57	?
> O=C(Nc1cccc(-c2nc3ncccc3o2)c1)c1cc2ccccc2o1
  >57	3.2µM*
> CCOc1cc(S(=O)(=O)N2CCN(c3ccc(F)cc3)CC2)c(OCC)cc1-n1cnnn1
  >57	-5%
> CC1Cc2ccccc2N1C(=O)Cn1c(=O)oc2cc(S(=O)(=O)NC3CCCC3)ccc21 (stereo not given)
  >57	?
> CN(CC(=O)NC1CCCCCCC1)S(=O)(=O)c1cccc2cccnc12
  >57	-9%
> CCCOC(=O)C1=C(C)NC2=C(C(=O)CCC2)C1c1cccc(OC)c1OC (stereo not given)
  ·	?
> Cc1ccc(NC(=O)Cc2nn(C)c(=O)c3ccccc23)cc1F
  >57	-3%
> CCc1ccc(NC2=CC(=O)CC(c3ccco3)C2)cc1 (stereo not given)
  ·	-13%
> Cc1ccnc(NS(=O)(=O)c2ccc(NS(=O)(=O)Cc3ccccc3)cc2)n1
  >57	-6%
> COc1ccccc1Nc1nc(N)nc(-c2cc3ccccc3o2)n1
  >57	-20%
> COc1ccc(C(=O)c2cn[nH]c2-c2cc(Cl)ccc2O)cc1
  ·	?
> CN(C)CCCN1c2ccc3ccccc3c2Sc2cccc(Cl)c21
  >57	?
> O=S(=O)(NCC1CC1)c1cccc(S(=O)(=O)N2CCCC2)c1
  >57	-15%
> CC1CCN(Cc2nc(-c3ccccc3)no2)CC1
  >57	-13%
> CCOC(=O)c1ccccc1NC(=O)Cn1cnc2c(cnn2C(C)(C)C)c1=O
  >57	0%
> N[C@H](CS(=O)O)C(=O)O
  >57	-3%
> CC(N)C12CC3CC(C1)CC(C(C)N)(C3)C2 (stereo not given)
  >57	?
> COc1cccc(CNC(=O)C2CCN(S(=O)(=O)c3cccc4cccnc34)CC2)c1
  >57	-4%
> Cc1cc(NC(=O)CSc2nc3c(c(=O)n(C)c(=O)n3C)n2C(C)C)no1
  >57	6%
> CCOc1ccc2[nH]c(C)c(CN(C)C)c(=O)c2c1
  ·	?
> NC(=O)C1(N2CCCCC2)CCN(C(=O)CSc2nc3ccccc3[nH]2)CC1
  >57	2%
> O=C(NCC1CCCO1)c1ccc(CS(=O)(=O)c2ccc(Br)cc2)o1 (stereo not given)
  >57	-10%
> CCn1c(SCCC(=O)Nc2ccccc2)nnc1-c1ccc(OC)cc1
  >57	-12%
> CC(=O)N1CCc2cc(S(=O)(=O)NCCC(=O)Nc3cccc(C)c3C)ccc21
  >57	-1%
> C=CCn1c(COc2ccccc2)nnc1SCc1ccc(C#N)cc1
  >57	·
> Cc1ccc(C)c(CN2CCNC2=O)c1
  >57	0%
> O=C(c1csnn1)N1CCC2(CCCN(c3ccc(-c4ccccc4)cc3)C2)CC1
  >57	2%
> Cn1ccnc1SCC(=O)Nc1ccc(Oc2ccccc2)cc1
  >57	-4%
> Cc1nc2scc(-c3ccccc3)c2c(=O)n1N
  >57	-5%
> CCOCCSc1nnc2nc(C)cc(C)n12
  >57	-9%
> CCOc1ccc(NC(=O)Nc2ccc3c(c2)nnn3C)cc1
  >57	9%
> CCOC(=O)c1c(C)[nH]c(C(C)=O)c1C
  ·	-3%
> CC(C)(C)NC(=O)C1CC(=O)OC1(C)C (stereo not given)
  >57	2%
> Cc1ccc(S(=O)(=O)N(CC(O)CN2CCCCC2)c2ccccc2)cc1 (stereo not given)
  >57	8%
> CCOC(=O)c1oc2ccccc2c1NC(=O)c1ccccc1OC
  >57	?
> O=C(OCCCCN1C(=O)c2ccccc2C1=O)c1ccc(S(=O)(=O)N2CCCC2)cc1
  >57	-11%
> COc1ccc(S(=O)(=O)N(C)CC(=O)Nc2ccccc2C(F)(F)F)cc1OC
  >57	-5%
> Cc1ccccc1Nc1nc(N)nc(CSCc2c(C)noc2C)n1
  >57	-6%
> COc1ccc2cc(C3(C)NC(=O)NC3=O)ccc2c1 (stereo not given)
  >57	4%
> Cc1cc(C(=O)OCC(=O)Nc2ccc(S(=O)(=O)N3CCOCC3)cc2)c(C)o1
  >57	-11%
> O=C1NCCN1C(=O)c1ccco1
  >57	7%
> COc1ccc(N2CCn3c2nc2c3c(=O)n(CCN3CCOCC3)c(=O)n2C)cc1
  >57	-13%
> C=CCN(CC=C)S(=O)(=O)c1ccc(F)cc1
  >57	-5%
> Nc1c(C(=O)NCCc2ccccc2)c2nc3ccccc3nc2n1CCN1CCOCC1
  >57	?
> COc1cc(NC(=O)c2ccc(S(=O)(=O)N(C)C)cc2)cc(OC)c1OC
  ·	12%
> O=S(=O)(Nc1ccc2c(c1)OCCO2)c1ccc(Br)s1
  >57	14%

3 compounds picked at random from those above, as already listed:
Results follow in this order: SmPrx2 inh	LT uptake inh
> CN(C(=O)CSc1nc(N)nn1-c1ccccc1)c1ccccc1
  >57	11%
> CCN(CC)C(=O)CSc1nnc(-c2ccco2)n1Cc1ccco1
  >57	-7%
> CCc1cccc(OCC(=O)Nc2ccc(S(=O)(=O)Nc3onc(C)c3C)cc2)c1
  >57	-8%

(listing goes on)
Results follow in this order: SmPrx2 inh	LT uptake inh
> CC(C)SC(=N)N
  >57	-2%
> Cc1cc(C)n2c(SCC(=O)N(C)C3CCS(=O)(=O)C3)nnc2n1 (stereo not given)
  >57	-19%
> COC(=O)c1nc2n(n1)C(c1ccc(OC)c(OC)c1OC)C1=C(CCCC1=O)N2 (stereo not given)
  >57	-14%
> CC1(C)OC(=O)C(C(c2ccccc2)C(C#N)C(N)=O)=C(O)O1 (stereo not given)
  >57	-6%
> O=C(Cn1cc2c(n1)CCCC2)NCCc1ccccc1
  >57	-5%
> CC(CCc1ccccc1)NC(=O)C1CCN(C(=O)c2sccc2-n2cccc2)CC1 (stereo not given)
  >57	-26%
> CCOC(=O)N1CCN(C2=Nc3cccc4cccc2c34)CC1
  >57	-6%
> N#CCCN(Cc1cccnc1)C(=O)Nc1ccc(Cl)c(Cl)c1
  ·	-2%
> S=c1nc(-c2ccccc2)n(CCCN2CCOCC2)c2c1CCCC2
  >57	?
> COC(=O)Nc1ccc(S(=O)(=O)Nc2ccccc2F)cc1
  >57	26%
> Cc1ccc(C(=O)Nc2ccc3c(c2)OCO3)o1
  ·	?
> Cc1nc(N2CCN(C(c3ccccc3)c3ccccc3)CC2)nc2c1C(=O)CCC2
  >57	?
> CCN(CC)CCn1c2ccccc2c2cnc(N=CN(C)C)c(C#N)c21
  >57	16%
> Cc1ccccc1OCC(=O)Nc1ccc(N2CCN(S(C)(=O)=O)CC2)cc1
  >57	-1%
> Cc1n[nH]c(=O)nc1NCCN(C)C
  >57	5%
> CC1Cc2c(cnc3c2CN(C)CC3)CO1 (stereo not given)
  ·	4%[8 µM]
> COc1cc2c(cc1OC)C(CCN)=NCC2
  >57	-7%[8 µM]
> Fc1ccc(CSc2nc3ncccc3[nH]2)cc1
  >57	-17%
> Cc1ccc(-n2c(C)nc3c(cnn3-c3ccc(F)cc3)c2=O)cc1C
  >57	4%
> O=C(c1cccc(F)c1)N1CCC2(CCN(Cc3ccncc3)CC2)CC1
  >57	?
> O=C(NCCCN1CCOCC1)c1csc2c1CCCC2
  >57	-9%
> CCCCc1ccc2[nH]cc(CCN)c2c1
  >57	?
> COc1ccc(CC(=O)Nc2ccc(-c3nc4cc(C)ccc4o3)c(O)c2)cc1OC
  ·	2%
> CCOC(=O)C(C)Oc1cccc2c(=O)n(CC(=O)NCc3ccco3)ccc12 (stereo not given)
  >57	0%
> O=C(NCc1cccnc1)C1CC(c2ccc(F)cc2)=NO1 (stereo not given)
  >57	-2%
> O=c1[nH]cnc2ccccc12
  ·	?
> COc1ccc(N(CC(=O)O)S(=O)(=O)c2ccc(OC)c(OC)c2)cc1
  ·	7%
> CCN1C(=O)/C(=C\N2CCCCCC2)SC1=S
  >57	-11%
> CCOC(=O)C1CCN(CC(=O)Nc2c(C(=O)OC)[nH]c3ccccc23)CC1
  >57	-25%
> COc1ccc2c(CC(=O)Nc3nnc(C4CC4)s3)coc2c1
  >57	18%
> CCN(CC)S(=O)(=O)c1ccc(NC(=O)c2ccc(NS(C)(=O)=O)cc2)cc1
  >57	-10%
> O=C(c1cc2c(s1)CCCC2)N1CCN(C(=O)C2CCCO2)CC1 (stereo not given)
  >57	3%

These rows are one share of the data; the hit share may differ from the screen's.
